# Sa growth inh: S. aureus growth inhibition; relative growth, % (concentration not given with the values); actives 0.53% (n = 170,000); S. aureus RN4220 growth, OD600, 20 h, 42 °C; active compounds read low;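 active means growth at 42 °C up to 50% and 20 or more points under that at 30 °C, or under 10% at both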;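 further: 300 nL library stock went into each well; scaled to the means of positive and negative controls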
# GIV-Gai inh: inhibitors of GIV GBA-motif binding to rat Galpha-i3; P08753; Galpha-i3/FITC-GIV peptide fluorescence polarization, 90 min; active compounds read low; scaled: aluminum fluoride 0%, vehicle 100%; percent of control (FP), % (concentration not given with the values); actives 0.42% (n = 210,000); AID 1224905;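 active means replicate mean at 85% of control or lower, very high polarization wells dropped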;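 further: wells of about 15 µL received 100 nL stock; the first replicate is given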
# Target sequence (P08753 whole entry, looked up): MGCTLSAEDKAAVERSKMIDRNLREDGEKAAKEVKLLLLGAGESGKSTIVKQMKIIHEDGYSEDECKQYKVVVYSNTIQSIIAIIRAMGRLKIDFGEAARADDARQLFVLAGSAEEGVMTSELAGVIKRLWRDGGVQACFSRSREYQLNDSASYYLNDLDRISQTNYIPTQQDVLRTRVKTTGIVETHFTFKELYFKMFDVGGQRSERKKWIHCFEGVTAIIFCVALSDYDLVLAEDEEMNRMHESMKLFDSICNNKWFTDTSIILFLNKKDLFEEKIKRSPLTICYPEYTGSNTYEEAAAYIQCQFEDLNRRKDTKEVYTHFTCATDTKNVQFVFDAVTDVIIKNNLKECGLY
# HCMV UL50-53 inh: inhibitors of HCMV UL50-UL53 nuclear egress complex interaction; HTRF UL50-UL53 interaction, normalized percent inhibition; actives 0.15% (n = 190,000); inhibition, % (test concentration not listed);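 active means both replicates at 50% or more, plus weaker picks with an unusually low signal ratio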;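 further: stock transfer was 100 nL into about 20 µL; 0% = negative control wells and 100% = wells with untagged competitor protein; inactives centre near -12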
# Sa growth inh second temp: also measured in Sa growth inh; calls as there; relative growth, %; measured here: growth at 30 °C;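 optical density after 20 h as mean of two plates; 100% = untreated growth and lower means inhibition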
# * marks the source's active call; other numbers are inactive results; x = no result given.
SMILES,Sa growth inh,Sa growth inh second temp,GIV-Gai inh,HCMV UL50-53 inh
COC(=O)c1ccccc1NC(=O)Cn1c(=O)n(-c2cccc(C(F)(F)F)c2)c(=O)c2c(C)c(C)sc21,103,93,100,0
COc1ccccc1C(=O)CSC1=NCCS1,88,94,x,14
c1cc2nncn2nc1N1CCCCC1,102,86,102,-5
CC(C(=O)N1CCCCC1)N1CCC(N2CCCCC2)CC1 (stereo not given),102,99,99,-3
O=S(=O)(NCCC12CC3CC(CC(C3)C1)C2)c1cc(Cl)ccc1Cl,80,67,x,-2
O=C(CCc1cc(Cl)no1)N1CCC(c2c[nH]c3ccccc23)(c2c[nH]c3ccccc23)CC1,106,80,93,-8
CCCCS(=O)(=O)NCc1ccc(OC)c(OC)c1,101,98,x,-4
CSc1nnc2c3ccccc3c3ccccc3c2n1,91,89,102,-2
C=CCOC(=O)C1=C(C)NC(C)=C(C(=O)OCC=C)C1c1ccccc1Cl,x,x,108,3
CCc1ccccc1NC(=O)C(C)n1nc(-c2ccc(C)c(C)c2)ccc1=O (stereo not given),111,77,101,-22
CCOC(=O)c1[nH]c(CSc2nnc3ccccn23)c(C(=O)OCC)c1C,81,89,x,-22
Cc1ccc(CNc2nc3c(S(=O)(=O)c4ccccc4)nnn3c3ccsc23)cc1,116,100,109,x
COCc1cc(C)nc2sc3c(=O)[nH]c(-c4ccccc4O)nc3c12,78,47,x,-28
Cc1nn2c(-c3cccc(NC(=O)c4ccc(Cl)cc4)c3)nnc2c2ccccc12,97,94,108,-68
CCSc1nc(C)c(C)c(=O)[nH]1,103,89,102,-17
COCc1cc(=O)[nH]c(SCCS(=O)(=O)c2ccc(C)cc2)n1,97,94,104,-1
O=C1N2CCCc3cccc(c32)C12Nc1ccccc1S2 (stereo not given),x,x,99,-11
CN(Cc1nc(-c2ccccc2)no1)C(=O)COc1ccccc1,106,96,101,-22
COc1ccccc1-c1c(C)nn2c(SCC(=O)NCc3cccnc3)cc(C)nc12,x,x,104,21
Cc1cccc(N(C)S(=O)(=O)c2ccc(-c3cc(C)no3)s2)c1,125,95,109,x
O=C(COc1ccccc1)Nc1cc(S(=O)(=O)C(F)(F)F)ccc1Cl,108,85,x,-9
CCOC(=O)c1cnc2c(C#N)cnn2c1N,101,97,102,1
CN(C)c1cccc(C(=O)OC2CCCCC2=O)c1 (stereo not given),108,98,x,4
O=C1CCCCC1Sc1nnc(-c2ccco2)o1 (stereo not given),90,91,x,-24
N#Cc1cc2c(nc1SC1CC(=O)N(c3ccccc3)C1=O)CCC2 (stereo not given),x,x,108,-42
Cc1ccc(-n2cc(-c3ccc4c(c3)OCO4)[nH]c2=S)cc1,94,76,105,-16
Cc1ccc(C)c(NC(=O)CCN2CCc3ccccc3C2)c1,107,71,104,-14
CCOc1ccc(-c2cc3c(SCC(C)C)nccn3n2)cc1,x,x,99,-3
Cn1c(SCc2cc(=O)c3cc(Cl)ccc3[nH]2)nnc1-c1ccccc1,102,90,111,x
COc1ccc(C(NC(C)=O)c2ccc(OC)cc2)cc1,95,89,98,-45
O=C(Nc1c(-c2ccccc2)nc2ccc(Cl)cn12)c1ccc(Cl)cc1,x,x,105,-15
Cc1onc(-c2ccccc2)c1C(=O)NCc1ccc(F)cc1,83,110,x,2
NC(=O)c1ccccc1,x,x,108,0
Cc1csc2nc(COC(=O)c3cccc(NC(=O)COc4ccccc4Cl)c3)cc(=O)n12,80,86,104,x
COc1ccc(C(CNC(=O)COc2ccc(C)cc2)N2CCCCC2)cc1 (stereo not given),87,93,107,0
CC1CCN(c2cnnc3c(Cl)cccc23)CC1,109,90,105,-132
O=C(OCCN1C(=O)c2cccc3c(N4CCOCC4)ccc(c23)C1=O)c1ccccc1[N+](=O)[O-],x,x,105,-8
Cc1cc(C)n2nc(C(=O)OCC(=O)N(C3CCCCC3)C3CCCCC3)nc2n1,106,90,x,16
COc1ccc2c(c1)C(=O)C(CC1(O)C(=O)Nc3ccccc31)CC2 (stereo not given),86,98,x,-14
CCOC(=O)C1=C(C)N=c2s/c(=C\c3cc([N+](=O)[O-])ccc3N3CCOCC3)c(=O)n2C1c1ccc(OC)c(OC)c1 (stereo not given),x,x,110,-15
COc1ccc(NC(=O)Cn2ncc3c2-c2ccccc2OC3)cc1Cl,92,84,103,-32
CCOC(=O)c1c(NC(=O)c2ccccc2F)sc(C(=O)Nc2ccc(OC)cc2OC)c1C,x,x,95,-14
COc1ccc2c(CC(=O)N[C@@H](Cc3c[nH]c4ccccc34)C(=O)O)coc2c1,82,69,x,-21
OC(CSc1ccc(F)cc1)CN1CCN(c2cccc(C(F)(F)F)c2)CC1 (stereo not given),x,x,104,-2
O=C(COC(=O)c1cccc(NC(=O)c2ccc(Br)cc2)c1)c1ccc(Cl)cc1,95,86,104,-36
CCOc1ccc(C(=O)COC(=O)C23CCC(=O)N2c2ccccc2C(=O)N3C)cc1 (stereo not given),98,99,x,-2
Cc1cccc(NC(=O)c2sc3nc(N4CCCC4)c4c(c3c2N)CCCC4)c1,x,x,103,-35
COc1ccccc1Cn1c(=O)[nH]c2cccnc21,103,91,104,-20
c1ccc2c(CN3CCN(Cc4c[nH]c5ccccc45)CC3)c[nH]c2c1,94,95,109,x
CCOc1ccc(S(=O)(=O)N(CC(=O)NCCSc2ccccc2)c2ccccc2)cc1,100,86,97,-22

# The list goes on.
SMILES,Sa growth inh,Sa growth inh second temp,GIV-Gai inh,HCMV UL50-53 inh
COCCN(CCOC)c1ncnc2c1c(-c1ccccc1)cn2-c1ccc(C)c(Cl)c1,104,85,104,x
Cc1cccc(-c2nc3c(cnn3-c3ccccc3)c(=O)n2-c2ccccc2)c1,101,87,104,x
COc1ccccc1N1CCN(S(=O)(=O)c2ccc3c(c2)CCCN3C(C)=O)CC1,94,87,98,x
CCN(CC)S(=O)(=O)c1ccc(C(=O)NC2=NCCS2)cc1,72,78,x,-20
CCC(CO)NCc1ccc(-c2cc(Cl)ccc2Cl)o1 (stereo not given),x,x,103,2
O=C(Cn1c(-c2cccs2)cc2cc(F)ccc21)N1CCN(c2cccc(Cl)c2)CC1,110,90,107,x
CS(=O)(=O)N1CCc2cc(C(=O)OCC(=O)c3ccccc3)ccc21,74,84,104,1
COc1cccc(-c2oc3ccc(C)cc3c(=O)c2O)c1,87,88,108,-26
Cc1ccc2oc(=O)n(CCNC(=O)Nc3ccc(C)c(F)c3)c2c1,108,91,105,16
Cc1ccccc1CSc1nc2ccncc2n1Cc1ccc(F)cc1,x,x,100,-9
Cc1ccc(C)c(S(=O)(=O)n2ncc(C#N)c2N)c1,78,90,x,-3
CC1=NN(C(=O)c2ccccc2)C(O)(c2ccc(Br)cc2)C1 (stereo not given),x,x,106,-19
COc1ccc(CNC(=O)CS(=O)Cc2nc(-c3ccc(OC)c(OC)c3)oc2C)cc1 (stereo not given),110,85,106,-4
Cc1ccccc1CNC(=O)c1cnc2sc(N3CCC(C)CC3)nn2c1=O,110,89,100,x
CCC(=O)N1c2ccc(S(=O)(=O)CCC(=O)NCc3ccc(OC)cc3)cc2CC1C (stereo not given),x,x,109,-6
COC(=O)c1c(NC(=O)c2nc(SC(C)C)ncc2Cl)sc2c1CCCC2,x,x,130,-12
Cc1ccc(C)c(NC(=O)Cn2c(=O)n(Cc3ccc4c(c3)OCO4)c(=O)c3ccccc32)c1,95,81,103,-26
O=C(Nc1cccc(-c2nc(-c3ccccc3)no2)c1)C1CC(=O)N(c2ccccc2)C1 (stereo not given),x,x,108,-19
O=C(C1CCN(c2ncnc3c2sc2cccc(F)c23)CC1)N1CCCCCC1,110,90,108,x
COc1ccc(C(=O)CSc2nc3cc(C(=O)NC4CCCC4)ccc3c(=O)n2CC2CCCO2)cc1 (stereo not given),97,88,105,x

# Reprinted from the part before: 7 entries, followed by the next part.
SMILES,Sa growth inh,Sa growth inh second temp,GIV-Gai inh,HCMV UL50-53 inh
Cc1ccccc1CNC(=O)c1cnc2sc(N3CCC(C)CC3)nn2c1=O,110,89,100,x
CCC(=O)N1c2ccc(S(=O)(=O)CCC(=O)NCc3ccc(OC)cc3)cc2CC1C (stereo not given),x,x,109,-6
COC(=O)c1c(NC(=O)c2nc(SC(C)C)ncc2Cl)sc2c1CCCC2,x,x,130,-12
Cc1ccc(C)c(NC(=O)Cn2c(=O)n(Cc3ccc4c(c3)OCO4)c(=O)c3ccccc32)c1,95,81,103,-26
O=C(Nc1cccc(-c2nc(-c3ccccc3)no2)c1)C1CC(=O)N(c2ccccc2)C1 (stereo not given),x,x,108,-19
O=C(C1CCN(c2ncnc3c2sc2cccc(F)c23)CC1)N1CCCCCC1,110,90,108,x
COc1ccc(C(=O)CSc2nc3cc(C(=O)NC4CCCC4)ccc3c(=O)n2CC2CCCO2)cc1 (stereo not given),97,88,105,x
COc1ccc(SCC(=O)c2cn(CCC#N)c3ccccc23)cc1,112,99,x,-10
COc1ccc(OC)c(CCNC(=O)Cn2nc(C)n3c(cc4sccc43)c2=O)c1,120,87,104,-28
N#CCCN1CCN(CCC#N)CC1,85,95,105,-11
COc1ccc(CNC(=O)COc2ncnc3ccccc23)cc1,106,90,x,0
COC(=O)Cn1ncc2ccccc2c1=O,89,83,99,-21
CCN(CC)C(=O)CSc1nc2c(cc1C#N)CCCC2,78,78,x,-6
NC(=O)CCn1nc(-c2ccccc2)c2ccccc2c1=O,102,85,102,x
O=C(CSc1nnc(-c2ccc(Cl)cc2)o1)N1CCc2ccccc2C1,84,88,x,4
COc1ccccc1Nc1c2c(nc3ncnn13)CCC2,x,x,111,8
CCCCN(CC)C(=O)CSc1nc2n[nH]c(C)c2c(=N)n1-c1ccc(CC)cc1,105,99,101,x

# Record cards (already shown):
# `CCCCN(CC)C(=O)CSc1nc2n[nH]c(C)c2c(=N)n1-c1ccc(CC)cc1` is entered as Sa growth inh = 105; Sa growth inh second temp = 99; GIV-Gai inh = 101; HCMV UL50-53 inh = x
# `COc1ccc(SCC(=O)c2cn(CCC#N)c3ccccc23)cc1` is entered as Sa growth inh = 112; Sa growth inh second temp = 99; GIV-Gai inh = x; HCMV UL50-53 inh = -10

# Next part.
SMILES,Sa growth inh,Sa growth inh second temp,GIV-Gai inh,HCMV UL50-53 inh
Cc1noc(C)c1-c1nnc(-c2cccc(Cl)c2)o1,85,80,104,-19
N#C/C(=C\c1cc(Br)c(O)c(Br)c1)c1nc2ccccc2c(=O)[nH]1,95,89,166,32
COc1ccccc1N1CCN(c2cc(C)nc3nc(-c4ccc(Cl)cc4)nn23)CC1,102,79,110,-17
CN(C(=O)c1noc2c1COc1ccccc1-2)c1cccc(C(F)(F)F)c1,81,82,101,x
O=C1CC(N2CCN(c3ccccc3Cl)CC2)C(=O)N1c1ccccc1 (stereo not given),x,x,94,-2
Cc1cc(C)cc(NC(=S)N(CCN(C)C)C2CCN(C(C)C)CC2)c1,118,84,99,x
COc1ccc(-c2nc3ccc(C(=O)NCc4ccco4)cc3nc2-c2ccc(OC)c(OC)c2)cc1OC,90,81,111,-29
CSc1nc(CSc2ccccc2)nc(N)c1C#N,98,109,100,-5
CN(c1ccc(OCC(=O)NCc2ccncc2)cc1)S(=O)(=O)c1cccs1,97,90,x,2
Cn1cnnc1Sc1nc2c(c(=O)n(C)c(=O)n2C)n1Cc1cc2c(cc1Cl)OCO2,x,x,111,-5
CCOC(=O)c1sc(-c2ccccc2)cc1NC(=O)c1cc2ccccc2oc1=O,x,x,100,-14
Cc1ccc(-c2ccc(SCc3nc(-c4ccc5c(c4)OCO5)no3)nn2)cc1C,x,x,106,-9
CC1CCN(C(=O)CNC(=O)c2ccc(F)cc2)CC1,73,92,x,-24
COc1cc(OC)c(NC(=O)CCc2c(C)nc3c4c(C)cc(C)nc4nn3c2C)cc1Cl,109,90,100,-8
COc1ccc2nc(NC(=O)c3ccoc3C)sc2c1,111,99,106,-15
CCOC(=O)c1nc(NC2CC2)c2c(-c3ccc(F)cc3)noc2n1,x,x,100,-24
COc1ccc2nc(NCc3cccnc3)sc2c1,121,85,107,5
Cc1cc(C)c(N2CCCC2C(=O)Nc2cccc(C(F)(F)F)c2)c(C)c1 (stereo not given),88,85,101,x
CCOC(=O)c1ccc2[nH]cc(S(=O)(=O)c3ccc(C)cc3)c(=O)c2c1,x,x,98,-14
Cc1ccc(NC(=O)CN(C)C(=O)CSc2nc3ccc(Cl)cc3o2)cc1,101,98,x,-17
N#CC(C(=O)c1ccco1)c1nc2ccccc2[nH]1 (stereo not given),102,95,105,-17
CCCC(C)C(=O)N1CC(C)CC(C)C1 (stereo not given),101,95,103,-14
Cc1cc2nc(-c3cccc(NC(=O)c4cccc5c(Br)cccc45)c3)oc2cc1C,x,x,105,9
O=c1[nH]nc(SCCS(=O)(=O)c2ccc(F)cc2)n1C1Cc2ccccc2C1,96,90,104,-12
O=C(CSc1nnc(-c2ccccc2F)n1Cc1ccccc1)Nc1cccc2nsnc12,120,92,x,-18
O=C(Nc1cccs1)Nc1ccc(F)cc1F,89,77,100,-6
O=C(NCC(c1ccco1)S(=O)(=O)c1cccs1)c1ccccc1F (stereo not given),103,84,100,x
CCCC(=O)Nc1ccc(-c2nc3cc4ccccc4cc3[nH]2)cc1,108,81,102,x
O=S(=O)(c1ccc(F)cc1)N1CCc2ccccc2C1,107,83,96,x
O=C(Oc1ccc(Cl)cc1)c1ccc2snnc2c1,106,93,100,-45
COc1ccc(O)c(C(=O)c2cnc(/N=C(\N)Nc3cc(Cl)cc(Cl)c3)nc2)c1,29,0,x,15

# Part of the list above, reduced to Sa growth inh second temp.
Compound	Sa growth inh second temp
CN(Cc1nc(-c2ccccc2)no1)C(=O)COc1ccccc1	96
COc1cc(OC)c(NC(=O)CCc2c(C)nc3c4c(C)cc(C)nc4nn3c2C)cc1Cl	90

# Screening results (PubChem BioAssay)
